# Screening data: PubChem BioAssay, several laboratories
# RGS16-Gao: RGS16-Galphao interaction regulator (human); bead-based flow cytometry RGS16-Galphao binding, fluorescence; actives lie on both sides; binding response (% of control), % at 10 µM; actives 0.38% (n = 220,000); AID 1441;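 active means below 25% or above 175%, edge rows of some plates excepted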;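 further: Galphao activated by GDP with aluminum fluoride before binding; 100% = wells without compound and 0% = beads without RGS; some results beyond the cut were filed as inactive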
# Target sequence (O15492 whole entry, looked up): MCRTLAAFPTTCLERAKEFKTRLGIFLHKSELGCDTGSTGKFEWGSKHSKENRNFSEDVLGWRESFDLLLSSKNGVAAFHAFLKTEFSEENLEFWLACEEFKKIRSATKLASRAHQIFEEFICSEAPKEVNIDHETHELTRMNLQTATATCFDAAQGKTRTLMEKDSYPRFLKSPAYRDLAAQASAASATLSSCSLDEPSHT
# Target sequence (P09471 whole entry, looked up): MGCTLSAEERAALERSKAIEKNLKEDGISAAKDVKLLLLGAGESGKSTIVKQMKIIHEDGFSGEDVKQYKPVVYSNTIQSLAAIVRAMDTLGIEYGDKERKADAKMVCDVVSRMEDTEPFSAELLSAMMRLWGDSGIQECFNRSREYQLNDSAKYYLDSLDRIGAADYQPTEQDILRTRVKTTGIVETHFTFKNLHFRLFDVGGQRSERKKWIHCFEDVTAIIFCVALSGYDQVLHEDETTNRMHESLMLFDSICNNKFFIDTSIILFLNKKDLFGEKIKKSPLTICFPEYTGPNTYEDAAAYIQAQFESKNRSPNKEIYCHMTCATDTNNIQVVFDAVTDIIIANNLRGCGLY
# HSV augment: increases HSV replication in cells; actives 0.005% (n = 220,000); HSV replication augmentation in cells, fold increase; maximum fold increase; AID 1956;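 active means peak rise of 1.5-fold or more in the series; tested in PC3 cells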;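 further: first round at 10 µM; read as green reporter fluorescence; hits show the peak of a series up to 25 µM; 1 = signal of infected wells without compound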
# HSV augment primary fold: second read-out of HSV augment, no call of its own (marks repeat the call); fold increase; compound at 10 µM; measured here: primary screen fold increase 10 uM; tested in PC3 cells;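 GFP signal in the first replicate; 1 = infected wells without compound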
# * = called active by the depositor; i = inactive; nt = no result given.
RGS16-Gao | HSV augment | HSV augment primary fold | structure
103.8 | nt | nt | COc1cc(/C=C2/CC/C(=C/c3ccc(O)c(OC)c3)C2=O)ccc1O
100.2 | nt | nt | O=[N+]([O-])c1ccccc1-c1ccc(C(=S)N2CCCCC2)o1
99.2 | nt | nt | Cc1cccc(CSc2nnc(-c3cnccn3)n2C)c1
106.0 | nt | nt | CC(C)Oc1ncnc2c1[nH]c1ccccc12
98.6 | nt | nt | CCN(CC)C(=O)CSC(Nc1ccc(F)cc1)=C(C#N)C#N
99.4 | nt | nt | Cn1cnc2c1c(=O)[nH]c(=O)n2C
94.2 | nt | nt | O=C(Nc1nc(-c2ccccn2)cs1)c1cccc(-n2cnnn2)c1
98.8 | nt | nt | NC(=S)Nc1cc(Cl)cc(Cl)c1
98.2 | nt | nt | Cc1ccc(N2C(=O)c3cccc4c(N)ccc(c34)C2=O)c2cccnc12
92.5 | nt | nt | CCC(=O)Nc1ccc(C(=O)Cn2nc(C(=O)O)c3ccccc3c2=O)cc1
103.2 | nt | nt | C#CCOCCOCCOCCNc1nc(N2CCN(C(=O)[C@H](CCCCN)n3cc([C@@H](N)CO)nn3)CC2)nc(N2CCN(C(=O)[C@H](Cc3cc4ccccc4[nH]3)n3cc([C@@H](N)CO)nn3)CC2)n1
95.3 | nt | nt | CN(C)Cc1c(O)ccc2c1O/C(=C\C=C\c1ccccc1)C2=O
90.5 | nt | nt | C[C@]12CC[C@@H]3c4ccc(O)cc4C(=O)C[C@H]3[C@@H]1CC[C@@H]2O
95.6 | nt | nt | CCN1Cc2c(/C=C/c3ccccc3)nc3ccc(OC)cc3c2N(c2cccc(Cl)c2)C1
102.4 | nt | nt | C=CCN1C=CC(=CC=C(C#N)C#N)C=C1
96.9 | nt | nt | Cc1cccc2nc3c(nc12)-c1ccccc1C3=O
99.0 | nt | nt | Cc1ccc(C2C3CN(C(C)C)CC=C3C(C#N)=C(N)C2(C#N)C#N)cc1 (stereo not drawn)
101.8 | nt | nt | Cc1cccc(N=C2NC(=O)/C(=C/c3cccn3C)S2)c1C
98.4 | nt | nt | C#CCOCCOCCOCCNc1nc(N2CCN(C(=O)[C@H](Cc3cc4ccccc4[nH]3)n3cc([C@@H](N)Cc4ccc(O)cc4)nn3)CC2)nc(N2CCN(C(=O)[C@H](Cc3cc4ccccc4[nH]3)n3cc([C@@H](N)CC(C)C)nn3)CC2)n1
nt | i | 0.92 | CCOc1ccc(NC(=O)c2ccc(F)cc2F)cc1
nt | i | 0.93 | COc1ccc(CCNC(=O)C2CC3Cn4c(nc5ccccc54)C3N2c2ccccc2)cc1 (stereo not drawn)
nt | i | 0.81 | C[C@H](CCC(=O)O)[C@H]1CC[C@H]2[C@@H]3[C@H](O)C[C@@H]4C[C@H](O)CC[C@]4(C)[C@H]3C[C@H](O)[C@]12C
nt | i | 0.78 | COc1ccc(-c2oc3c4c(cc(OC)c3c(=O)c2CC=C(C)C)OC(C)(C)C=C4)c(OC)c1
nt | i | 0.96 | O=C1CC2(CCCCC2)Oc2ccccc21
nt | i | 0.67 | CC1(C)C=Cc2c(ccc3c2OC[C@@H](c2ccc(O)cc2O)C3)O1
nt | i | 0.89 | COCCNC(=O)c1cc(-c2ccccc2)nn1CC1CC(c2cccc([N+](=O)[O-])c2)=NO1 (stereo not drawn)
nt | i | 0.79 | Cn1cc(C(=O)OCC2CCN(CCNS(C)(=O)=O)CC2)c2ccccc21
nt | i | 1.05 | Cc1ccsc1C(=CCCN1CCC[C@@H](C(=O)O)C1)c1sccc1C
nt | i | 1.04 | O=C1N[C@@H](Cc2cn(S(=O)(=O)c3ccc([N+](=O)[O-])cc3)c3ccccc23)C(=O)N[C@H]1Cc1ccccc1
nt | i | 0.73 | Cc1ccccc1CN1C(=O)[C@H]2Cc3c([nH]c4ccccc34)C(C)(C)N2C1=O
nt | i | 0.92 | Clc1ccc(N2CCN(c3ncnc4c3oc3ccccc34)CC2)cc1
nt | i | 0.87 | COc1cc2ccccc2cc1C(=O)Nc1ccc(N2CCN(C)CC2)cc1

# Rewritten tab-delimited: 7 of the compounds above.
SMILES	RGS16-Gao	HSV augment	HSV augment primary fold
C[C@]12CC[C@@H]3c4ccc(O)cc4C(=O)C[C@H]3[C@@H]1CC[C@@H]2O	90.5	nt	nt
CCN1Cc2c(/C=C/c3ccccc3)nc3ccc(OC)cc3c2N(c2cccc(Cl)c2)C1	95.6	nt	nt
C=CCN1C=CC(=CC=C(C#N)C#N)C=C1	102.4	nt	nt
Cc1cccc2nc3c(nc12)-c1ccccc1C3=O	96.9	nt	nt
Cc1ccc(C2C3CN(C(C)C)CC=C3C(C#N)=C(N)C2(C#N)C#N)cc1 (stereo not drawn)	99.0	nt	nt
Cc1cccc(N=C2NC(=O)/C(=C/c3cccn3C)S2)c1C	101.8	nt	nt
C#CCOCCOCCOCCNc1nc(N2CCN(C(=O)[C@H](Cc3cc4ccccc4[nH]3)n3cc([C@@H](N)Cc4ccc(O)cc4)nn3)CC2)nc(N2CCN(C(=O)[C@H](Cc3cc4ccccc4[nH]3)n3cc([C@@H](N)CC(C)C)nn3)CC2)n1	98.4	nt	nt

# (listing goes on)
RGS16-Gao | HSV augment | HSV augment primary fold | structure
nt | i | 0.89 | C=C(C)Cn1c(C2CC(=O)N(Cc3ccccc3)C2)nc2ccccc21 (stereo not drawn)
nt | i | 0.76 | COc1cc(/C=C2/N=C(c3ccccc3)OC2=O)c(F)cc1OCc1ccccc1
nt | i | 0.91 | CCOC(=O)C1=C(C)N(CCCC(=O)O)C(=O)NC1C(CC)CC (stereo not drawn)
nt | i | 0.79 | CC(=O)NNC(=O)N1Cc2ccccc2Oc2ccc(Cl)cc21
nt | i | 0.92 | C/C=C(\C)C(=O)NCCN1C2=NC[C@@H](Cc3ccccc3)N2C[C@@H]1Cc1ccc(OC)cc1
nt | i | 1.05 | CCCCNC(=O)c1onc(CSc2ccc(F)c(F)c2)c1C(=O)NCCCC
nt | i | 0.84 | COC(=O)C1=C(C)N(CCCC(=O)O)C(=O)NC1c1ccc([N+](=O)[O-])cc1 (stereo not drawn)
nt | i | 0.97 | C=CCOC(=O)C1=C[C@@H](c2csc3ccccc23)[C@H](CCCO)[C@@H](OCC)O1
nt | i | 0.7 | C#CCNC(=O)[C@H](Cc1ccc(C(=O)c2ccccc2)cc1)NC(=O)OC(C)(C)C
nt | i | 1.05 | COc1cc(/C=C/C(=O)O)ccc1O
nt | i | 0.83 | O=C1c2ccccc2C(=O)N1Cc1nc2ccccc2c(=O)n1Cc1ccco1
nt | i | 0.72 | COc1ccc(-c2ccccc2)c2oc(-c3ccco3)cc(=O)c12
nt | i | 0.84 | CCN1C(=O)N[C@@H](c2cccc(F)c2)C(C(C)=O)=C1C
nt | i | 1.02 | COc1c(N2C[C@@H]3CCCN[C@@H]3C2)c(F)cc2c(=O)c(C(=O)O)cn(C3CC3)c12
nt | i | 0.83 | COCCn1c(-c2cc(OC)c(OC)c(OC)c2)nc2oc3ccccc3c(=O)c2c1=O
nt | i | 0.95 | CC(=O)n1cc([C@H]2C=C(C(=O)N3CCOCC3)O[C@@H](OCCCCO)C2)c2ccccc21
nt | i | 0.98 | COC(=O)C1=C(N)Oc2cc(C)n(CCCn3ccnc3)c(=O)c2C1c1cccc(Cl)c1 (stereo not drawn)
nt | i | 0.72 | COC(=O)[C@@]1(Cc2ccc(OC)cc2)[C@H]2c3cc(C(=O)N4CCCC4)n(Cc4c(CO)[nH]cc(C)c4=O)c3C[C@H]2CN1C(=O)c1ccccc1
nt | i | 0.77 | CCOC(=O)CN1C(=O)N[C@@H](c2ccco2)C(C(=O)OC)=C1C
nt | i | 0.76 | COCCNC(=O)C1CC(c2ccc(C(F)(F)F)cc2)=NO1 (stereo not drawn)
nt | i | 0.92 | CC1(C)c2[nH]c3ccccc3c2C[C@@H]2C(=O)N(c3ccc(F)cc3F)C(=O)N21
nt | i | 0.9 | CCCCSc1nc2c(c(=O)[nH]c(=O)n2C)n1CCc1ccccc1
nt | i | 0.87 | COc1ccc(-c2ccc(N)[n+](CCCC(=O)O)n2)cc1
nt | i | 1.06 | Cc1ccc(Cn2c(C(C)Nc3nc(-c4ccc(F)cc4)cs3)nc3cc(C(F)(F)F)ccc32)cc1 (stereo not drawn)
nt | i | 1.08 | Cc1cc(C)c2[nH]c(=O)c(C(c3nnnn3Cc3ccc4c(c3)OCO4)N3CCCCC3)cc2c1 (stereo not drawn)
nt | i | 0.95 | CC(C)(C)c1ccc(NC(=O)c2ccc3c(c2)S(=O)(=O)c2ccccc2C3=O)cc1
nt | i | 1.13 | COc1ccc2[nH]c(=O)c(-c3nnn(-c4ccc(Cl)nc4)n3)cc2c1
nt | i | 0.85 | COc1cccc(SCc2noc(C(=O)NCC3CC3)c2C(=O)NCC2CC2)c1
nt | i | 0.92 | O=S1(=O)CCOC[C@H](Cc2ccccc2)N1Cc1cccc(F)c1
nt | i | 0.96 | COC(C/C=C\[C@@H](O)[C@H](C)OCc1ccccc1)OC
nt | i | 0.67 | Cc1ccc(Nc2nc(NCCO)nc(N3CCCC3)n2)cc1
nt | i | 0.76 | COc1ccc(CCNC(=O)C2CC3Cn4c(nc5ccccc54)C3N2Cc2ccccc2)cc1 (stereo not drawn)

# Full records, quoted from the list:
# Results for CC(C)(C)c1ccc(NC(=O)c2ccc3c(c2)S(=O)(=O)c2ccccc2C3=O)cc1 → RGS16-Gao: nt; HSV augment: i; HSV augment primary fold: 0.95
# Results for Cc1ccc(Nc2nc(NCCO)nc(N3CCCC3)n2)cc1 → RGS16-Gao: nt; HSV augment: i; HSV augment primary fold: 0.67

# (next part)
RGS16-Gao | HSV augment | HSV augment primary fold | structure
nt | i | 0.78 | CCN1C(=O)N[C@@H](c2cccc(C(F)(F)F)c2)[C@H](C(=O)OC)[C@H]1C
nt | i | 0.9 | CCCCCCCCN1[C@@H](CC(=O)OCC)c2ccc(C(F)(F)F)cc2S1(=O)=O
nt | i | 0.91 | CCCCC1=CC2=CC(=O)C(C)(OC(=O)c3cccs3)C(=O)C2=CO1 (stereo not drawn)
nt | i | 1.09 | CC1=C(C)SC(=C(C#N)c2nnc(N3CCOCC3)n2-c2ccccc2)S1
nt | i | 1.22 | C=CCOC(=O)C1=C[C@H](c2coc3ccccc3c2=O)C[C@H](OCCCCO)O1
nt | i | 0.77 | COc1ccc(CNC(=O)[C@@H]2CC=C[C@@H]3CCN(C4CCCCC4)C(=O)[C@@H]32)cc1
nt | i | 0.78 | C#Cc1ccc([C@H]2C=C(C(=O)NCc3nc4ccccc4[nH]3)O[C@@H](OCc3ccc(CO)cc3)C2)cc1
nt | i | 1.03 | CCOC(=O)c1sc2nc(-c3ccco3)c3c(c2c1N)CC(C)(C)OC3

# Random excerpt: 2 records from the list
RGS16-Gao | HSV augment | HSV augment primary fold | structure
nt | i | 0.72 | COC(=O)[C@@]1(Cc2ccc(OC)cc2)[C@H]2c3cc(C(=O)N4CCCC4)n(Cc4c(CO)[nH]cc(C)c4=O)c3C[C@H]2CN1C(=O)c1ccccc1
nt | i | 0.84 | CCN1C(=O)N[C@@H](c2cccc(F)c2)C(C(C)=O)=C1C

# More results.
RGS16-Gao | HSV augment | HSV augment primary fold | structure
nt | i | 0.75 | C#CCNC(=O)C1=C[C@@H](c2ccc3c(c2)OCO3)C[C@@H](OCCCCO)O1
nt | i | 0.79 | CCC(C)[C@H]1CN=C(N)N1CCc1cccc2ccccc12 (stereo partly drawn)
nt | i | 1.04 | CCOC(=O)c1ccc(NC(=O)c2c(N)n(C)c(=O)n(C)c2=O)cc1
nt | i | 0.81 | C=C(C)Cn1c(=O)c2c(nc3n2CCN3c2cccc(Cl)c2C)n(C)c1=O
nt | i | 0.77 | OCCOCCn1c(C2CCCN2c2nc(-c3ccc(F)cc3)cs2)nc2cc(Cl)c(Cl)cc21 (stereo not drawn)
nt | i | 0.76 | COC(C/C=C\[C@H](O)COCc1ccccc1)OC
nt | i | 0.73 | O=C(NC1CC1)C1=C[C@H](c2coc3ccccc3c2=O)C[C@H](OCCCCO)O1
nt | i | 0.9 | CC1CCN(c2nc3c(c(=O)n(C)c(=O)n3C)n2CCSc2ncccn2)CC1

# Quoted from the listing.
# COC(C/C=C\[C@H](O)COCc1ccccc1)OC @ HSV augment primary fold: 0.76
# C=C(C)Cn1c(=O)c2c(nc3n2CCN3c2cccc(Cl)c2C)n(C)c1=O @ HSV augment primary fold: 0.81
# OCCOCCn1c(C2CCCN2c2nc(-c3ccc(F)cc3)cs2)nc2cc(Cl)c(Cl)cc21 (stereo not drawn) @ HSV augment primary fold: 0.77
# CCOC(=O)c1ccc(NC(=O)c2c(N)n(C)c(=O)n(C)c2=O)cc1 @ HSV augment primary fold: 1.04

# The list continues:
RGS16-Gao | HSV augment | HSV augment primary fold | structure
nt | i | 0.83 | CC1(c2nnc(-c3cccc(Cl)c3)o2)CC(c2cccc(F)c2)=NO1 (stereo not drawn)
nt | i | 0.75 | C=CCN(CC(=O)c1sc(C(=O)OCC)nc1C)c1cccc(Br)c1
nt | i | 1.01 | O=C(O)C[C@H]1c2cc(C(F)(F)F)ccc2S(=O)(=O)N1C1CCCCC1
nt | i | 0.68 | O=c1c(-c2ccc(O)cc2)coc2cc(O)ccc12
nt | i | 0.93 | COC(=O)C1N[C@@H]([C@@H](NC(=O)COc2ccccc2)C(=O)Nc2ccc(OC)cc2)SC1(C)C (stereo partly drawn)
nt | i | 1.13 | C=CCNC(=O)c1c(CSc2ccc(Cl)cc2)noc1C(=O)NCc1ccccc1

# These rows are one share of the data, so the mix of outcomes need not match the whole.
